Screening results from PubChem.
VACV Venus inh = qHTS for Stage-Specific Inhibitors of Vaccinia Orthopoxvirus: Venus Reporter Primary qHTS. Vaccinia virus Venus reporter expression, fluorescence. AID 720580, 2013. Potency, µM (top dose mostly 36.5 µM), for the others: at the top dose activity change, negative = inhibition, actives largely listed as inhibitors. 0.46% of 330,000 active; active means well fitted inhibition curve with a large enough effect; inconclusive means small, poorly fitted or top-dose-only effect; inactive means no such curve, though single readings can be large or run the other way; tested in A549 cells; also: nearly all actives have a fitted effect of over 30% in size; inactives centre near -10
VACV mCherry inh = qHTS for Stage-Specific Inhibitors of Vaccinia Orthopoxvirus: mCherry Reporter Primary qHTS. Vaccinia virus mCherry reporter infection, fluorescence; about a quarter of the inactives have no number. Potency, µM (titrated, usually from 36.5 µM), for the others: top-dose activity change, negative = inhibition, most hits filed as inhibitors. 0.63% of 310,000 active; active = well fitted inhibition curve with a large enough effect; inconclusive = small, poorly fitted or top-dose-only effect; inactive = no such curve, though single readings can be large or run the other way; tested in A549 cells; also: nearly all actives have a fitted effect of over 35% in size; inactives centre near -10
Active calls of the source: *; i = inactive; ? = inconclusive; · = no result given; & = joins results of further samples; [ ] = another dose, or the depositor's remark. % is scaled to controls: 0 for no effect and ±100 for the full control effect; potency is read from the fitted curve at half-maximal effect. Random draw from the library. Share with any hit: about 0.82%.

| Molecule | VACV mCherry inh | VACV Venus inh |
| --- | --- | --- |
| O=C1C(=NO)CCc2ccccc21 | -1% | -7% |
| O=C(Nc1ccc2c(c1)OCO2)c1cc(C2CCCN(C(=O)CCc3ccccc3)C2)on1 (configuration not stated) | 19% | -8% |
| CC1(C)Cc2ccccc2C(/C(=N\Nc2cccc(Cl)c2)C(N)=O)=N1 | ? | ? |
| Fc1ccccc1NC(=S)N(CCN1CCCCC1)Cc1ccco1 | -13% | -4% |
| CCCNC(=O)NC(=O)CSc1ncc(C(F)(F)F)cc1Cl | -20% | 2% |
| O=C(CCS(=O)(=O)c1cc2c(cc1Cl)NC(=O)CO2)NCc1ccccc1 | -13% | -4% |
| NC(=O)CSc1ccc2nnc(-c3ccncc3)n2n1 | 37%[activator] | -5% |
| Nc1c(C(=O)NCC2CCCO2)c2nc3ccccc3nc2n1-c1ccccc1 (configuration not stated) | · | ? |
| Cc1nc(-c2ccc(F)cc2)sc1CCNC(=O)c1ccc(C(C)(C)C)cc1 | -14% | -10% |
| CC(C)C(NC(=O)c1ccco1)C(=O)OCC(=O)Nc1ccc(C(N)=O)cc1 (configuration not stated) | -8% | -6% |
| O=S(=O)(Nc1ccc(F)cc1)N1CCOCC1 | -30% | -6% |
| CCN(CC)S(=O)(=O)c1ccc(C)c(NC(=O)CSc2nc3ccccc3[nH]2)c1 | -8% | -20% |
| O=C(Nc1ccc(S(=O)(=O)Nc2ccccn2)cc1)c1ccccc1 | -5% | -8% |
| CCCSc1oc(-c2ccco2)nc1S(=O)(=O)c1ccc(C)cc1 | ? | -12% |
| COCCNc1nc(Oc2cccc(F)c2)c2sccc2n1 | 3% | -9% |
| O=C(Nc1ccc(F)c(F)c1)C1CCCCC1 | i | -15% |
| CCc1nnc(NC(=O)c2cccnc2)s1 | · | 8% |
| COC(CN(C(=O)CCl)C(C(=O)NC1CCCC(C)C1C)c1ccc(C)cc1)OC (configuration not stated) | -22% | -15% |
| CC(=O)O[C@]1(C(C)=O)CC[C@H]2[C@@H]3C=C(Cl)C4=CC(=O)CC[C@]4(C)[C@H]3CC[C@@]21C | -1% | -9% |
| COC(=O)c1c(C)nc(C)c2c(=O)oc3ccccc3c12 | -23%[1.46 µM] | -11% |
| C/C(=N\NC(=O)c1cc(-c2ccccc2C)nc2ccccc12)c1cccnc1 | -15% | -5% |
| CN(C)c1ccc(C(CNC(=O)c2c(F)cccc2Cl)N2CCOCC2)cc1 (configuration not stated) | 1% | -6% |
| CC(NC(=O)CCN1C(=O)c2ccccc2S1(=O)=O)c1ccccc1 (configuration not stated) | -20% | -9% |
| CC(C)(C)NC(=O)CSC(=Nc1ccc(F)cc1)NC#N | -13% | -9% |
| CCCn1nc(CC(=O)OCC)c2ccccc2c1=O | -19% | 0% |
| CC(=O)SC1CC(=O)N(c2ccc(C(C)(C)C)cc2)C1=O (configuration not stated) | -2%[7.34 µM] | 0%[7.34 µM] |
| CCN(CC)c1ccc(/C=C/c2cccc[n+]2C)c(OC)c1 | 98%[activator] | i |
| Cc1ncc([N+](=O)[O-])n1CC(C)O (configuration not stated) | -3% | -8%&-1% |
| O=C1c2ccccc2C(=O)N1c1nc(-c2ccc(Cl)cc2)cs1 | ? | ? |
| O=C(NCCc1cccc(F)c1)C1CCCN(c2nc3ccccc3s2)C1 (configuration not stated) | 1% | -8% |
| COC(=O)c1sccc1S(=O)(=O)N(CC(=O)Nc1ccc(C)c(F)c1)c1ccc(C)c(C)c1 | -17% | -16% |
| CCN(CC)S(=O)(=O)c1ccc(N2CCOCC2)c(NC(=O)c2ccccc2)c1 | -14% | -9% |
| COc1ccc(CCNC(=O)CSc2nnc3c(n2)[nH]c2ccc(F)cc23)cc1OC | i | 24% |
| CC1CCc2ccccc2N1C(=N)N(C)C (configuration not stated) | -9% | -3% |
| O=C(O)/C(=C\c1ccc(Br)cc1)NC(=O)c1cccs1 | -2% | 7% |
| COc1cc2c(cc1OC)C(O)C(O)(CO)C(C(=O)O)C2c1cc(OC)c(OC)c(OC)c1 (configuration not stated) | ? | -5% |
| CCN(CC)c1nc2c3c(nc4c(c3c1C#N)CC(=O)N4c1ccc(Cl)cc1)NC(C)=N2 | i | 16% |
| Cc1cc(-c2ccc(C)c(S(=O)(=O)NCC3CCN(Cc4ccccc4F)CC3)c2)on1 | ? | -27%&-13% |
| CCCCNC(=O)c1onc(CSc2ccc(F)cc2)c1C(=O)O | -11% | -6% |
| OC(CN1CCOCC1)c1csc2ccccc12 (configuration not stated) | i | -10% |
| CCCCCCC(=O)Nc1nc(C)c(-c2csc(Nc3ccc(Cl)cc3)n2)s1 | 5µM* | ? |
| COC(=O)N1CCC2CC1c1c(Cl)cccc12 (configuration not stated) | 21% | 1% |
| Cc1ccc(N2CCN(C(=O)c3cc(-c4ccc(F)cc4)[nH]c3C)CC2C)cc1 (configuration not stated) | 10µM* | ? |
| O=C1CSCC(=O)N1c1ncc(C(F)(F)F)cc1Cl | i | -13% |
| NNc1nc(-c2ccccc2)cs1 | -8% | -10% |
| Cc1ccc(C(=O)N2CCN(c3ncccn3)CC2)cc1S(=O)(=O)N1CCCCC1 | i | -5% |
| CCOC(=O)Cn1c(=O)oc2cc(S(=O)(=O)Nc3c(C)cc(C)cc3C)ccc21 | i | 2% |
| O=C(Cc1ccccc1)Nc1ccccc1C(=O)Nc1ccc(C(=O)O)cc1 | 2% | 1% |
| CC(C)(C)C(=O)Nc1ccc2c(c1)C(=O)C(=O)c1ccccc1-2 | ? | ? |
| N/C(=N\OC(=O)Cc1ccccc1)c1cccc(Br)c1 | -14% | 5% |
| COc1ccc(N(Cc2cc3ccc(C)cc3[nH]c2=O)C(=O)c2ccco2)cc1 | · | 8% |
| CCCc1nnc(NC(=O)c2cc3ccccc3o2)s1 | 0% | -4% |
| Cc1ccc(C)c(S(=O)(=O)c2nnn3c2nc(N2CCN(C)CC2)c2sccc23)c1 | ? | ? |
| COc1cc(OC)cc(-c2c(C#Cc3ccsc3)c3cc(-c4cccc5[nH]cc(C=O)c45)ccc3n2C)c1 | i | -8% |
| CC(C)(C)NC(=O)CC(CC(=O)O)c1ccccc1 (configuration not stated) | i | -8% |
| CCCCCCCCCC[n+]1ccc(/C=C/c2c[nH]c3ccccc23)c2ccccc21 | · | i |
| CCOC(=O)c1c(C)oc2nc(C)nc(NCC3CCN(Cc4cccc(C)c4)CC3)c12 | -13% | -17% |
| CC(=O)NC(c1ccc(F)c(F)c1)c1nc(-c2ccc(C)c(C)c2)cs1 (configuration not stated) | 16% | 1% |
| O=C(NC(Cc1ccccc1)C(=O)N1CCN(S(=O)(=O)c2ccccc2F)CC1)c1ccccc1 (configuration not stated) | -12% | -17% |
| COc1ccc2c(c1OC)C(=O)O[C@@H]2[C@H]1c2cc3c(cc2CCN1C)OCO3 | -15% | -10% |

More compounds:
| Molecule | VACV mCherry inh | VACV Venus inh |
| --- | --- | --- |
| COc1ccc(C)cc1NC(=O)c1oc2ccc(S(=O)(=O)N(C)C3CCCCC3)cc2c1C | -3% | 1% |
| C=CCSC1=C(C#N)C(c2ccccc2Cl)CC(=O)N1 (configuration not stated) | -26% | -18% |
| CCOC(=O)C1(CC2CCCCO2)CCN(C(=O)Nc2cccc(SC)c2)CC1 (configuration not stated) | i | -8% |
| CCOc1ccccc1NC(=O)Cn1nc2c3cc(F)ccc3n(Cc3cccc(C)c3)cc-2c1=O | -14% | -21% |
| COC(=O)N/N=C/c1cc(Cl)c(OCc2ccccc2F)c(OC)c1 | -14%[7.34 µM] | -19%[7.34 µM] |
| c1cn2c(-c3ccc(N4CCOCC4)cc3)cncc2n1 | 15% | -3% |
| O=c1c2ccccc2nnn1CSc1ccccc1 | -7% | -7% |
| Cc1ccc(Cl)cc1NC(=O)CCC(=O)Nc1cc(Cl)ccc1C | -3% | 4% |
| CN(C)C(=O)[C@@H]1C[C@H]1[C@@H](NC(=O)OCc1ccccc1)c1ccccc1 | i | -21% |
| COc1ccccc1CCNC(=O)c1ccc(OC)c(OC2CCN(C(C)C)CC2)c1 | -19% | -13% |
| CN(C)S(=O)(=O)Nc1ccccc1C(N)=O | -13% | -7% |
| CCn1ccnc1CN(C)C(=O)c1cc(COc2ccc(-n3cncn3)cc2)on1 | i | -14% |
| Cc1nnc(SCC(=O)NC(=O)NC(C)(C)C)s1 | i | -1% |
| COc1ccc(CN2C(=O)C(C)Nc3ncnc(N4CCOCC4)c32)cc1 (configuration not stated) | i | -18% |
| Cn1c(SCC(=O)Nc2ccc3nc(SCC(=O)N4CCCC4)sc3c2)nnc1-c1ccccc1 | · | -25% |
| CC(C)C[C@H]1CN([C@@H](CC(C)C)CN2CCCC2CN2C(=S)NC[C@@H]2Cc2ccccc2)C(=S)N1CCc1ccccc1 (some centres not stated) | -9% | -11% |
| Cc1ccc(C(=O)OCC(=O)NCc2cccs2)c(C)c1 | i | -17% |
| N#CC1=C(S)N=C(N)C(c2nc(-c3ccccc3)cs2)C12CCCCC2 (configuration not stated) | -12% | -11% |
| CC1CCc2sc(NC(=S)NC(=O)c3ccccc3)c(C#N)c2C1 (configuration not stated) | i | -3% |
| CCOc1ccccc1C(=O)N/N=C/c1cccc2cccnc12 | · | -21% |
| Cc1ccc(S(=O)(=O)NNc2ccccc2)c(C)c1 | -26% | -9% |
| CSc1nc(NCC(C)O)c2c3c(sc2n1)CN(C)CC3 (configuration not stated) | -13% | -15% |
| O=C(COc1ccc([N+](=O)[O-])cc1Cl)N(C1CCCCC1)C1CCS(=O)(=O)C1 (configuration not stated) | -3% | -14% |
| O=C(CSc1n[nH]c(-c2ccccc2)n1)Nc1ccc(Br)cn1 | · | ? |
| CCCCCN1C(C(=O)c2ccccc2)=C(NC(=O)c2ccc(OC)cc2)c2ccccc2S1(=O)=O | -18% | -9% |
| O=C(C1=NN[C@@H]2C(=O)N(c3cccc(C(F)(F)F)c3)C(=O)[C@H]12)c1cnccn1 | i | -8% |
| O=C(NCc1csc(-c2ccccc2)n1)c1ccco1 | · | -10% |
| COc1ccc(C(=O)Nc2ccc(NC(=O)C3CCCCC3)nc2)cc1 | 4% | -9% |
| O=c1c2ccccc2nc(-c2ccc(Cl)cc2Cl)n1O | -9% | -11% |
| CN(C)CCNC(=O)CN1C(=O)COc2ccc(C(C)(C)C)cc21 | i | -9% |
| CC(C)CNC(=S)NC(=O)c1ccccc1Cl | -17% | -6% |
| COc1ccc(NC(=O)C(C)n2c(C)c3cnn(-c4ccccc4)c(=O)c3c2C)cc1Cl (configuration not stated) | -5% | -1% |
| Cc1ccc(CN2[C@@H](CC(C)C)COCCS2(=O)=O)cc1 | -4% | -6% |
| COc1ccc(C(=O)NCc2ccncc2)cc1S(=O)(=O)N1CCOCC1 | i | -5% |
| COC(=O)n1c(=O)oc2ccc(S(=O)(=O)N3CCCCC3)cc21 | i | 2% |
| CCOC(=O)C1CCN(C(=O)c2c(-c3ccccc3)noc2C)CC1 | -13% | -7% |
| COCCn1c(N)c(C(=O)Nc2sc3c(c2C(=O)OC)CCCC3)c2nc3ccccc3nc21 | -4% | 4% |
| O=C(NCc1nc2ccccc2[nH]1)c1c(F)c(F)c(F)c(F)c1F | ? | -24% |
| Cc1cccc(CN2CCC(CNC(=O)Cn3ncc4c([nH]c5ccccc54)c3=O)CC2)c1 | 15%[7.34 µM] | 0%[7.34 µM] |
| Cc1cc(C)cc(NC(=O)Nc2c[nH]c(=O)[nH]c2=O)c1 | 2% | -7% |
| OC1CCN(C(=S)Nc2ccc(Oc3ccccc3)cc2)CC1 | -27% | -18% |
| COc1cc(C2=NC(CO)(CO)CO2)cc(OC)c1OC | -1% | -10% |
| CCC(CC)NCCOC(=O)c1ccc([N+](=O)[O-])cc1 | i | -21% |
| CCOC1=NN(c2ccccc2)C(=O)/C1=C\N(C)C | -1% | -11% |
| COc1ccc(Nc2cc(C)c3cc(NC(=O)Cc4c(F)cccc4Cl)ccc3n2)cc1 | -11% | -20% |
| O=C1C2CC=CCC2C(=O)N1c1ccc(NCCc2cccc(F)c2)c([N+](=O)[O-])c1 (configuration not stated) | -6% | -4% |
| Cc1ccc(CNS(=O)(=O)c2ccc(-c3cc(C(F)(F)F)on3)s2)cc1 | -7% | -4% |
| CCOc1cc(N2CCOCC2)c(OCC)cc1NC(=O)c1ccc(OCc2c(C)noc2C)c(OC)c1 | -14% | -9% |
| O=C(Nc1ccccc1)N1C(=O)C2(OCCO2)c2ccccc21 | -6% | -19% |
| c1ccc2c(-c3cc(C4CCNCC4)[nH]n3)cccc2c1 | -15% | -9% |
| C=CCSc1ccsc1C(=O)O | -20% | -5% |
| O=C(Nc1nnc(C2CC2)s1)c1cccc(S(=O)(=O)N2CCc3ccccc32)c1 | -17% | -7% |

Entries of single compounds as entered above. Order of screens: VACV mCherry inh	VACV Venus inh
O=C1c2ccccc2C(=O)N1c1nc(-c2ccc(Cl)cc2)cs1 as listed: ?	?
CCCCCCC(=O)Nc1nc(C)c(-c2csc(Nc3ccc(Cl)cc3)n2)s1 as listed: 5µM*	?
N#CC1=C(S)N=C(N)C(c2nc(-c3ccccc3)cs2)C12CCCCC2 (configuration not stated) as listed: -12%	-11%
CCOC(=O)C1(CC2CCCCO2)CCN(C(=O)Nc2cccc(SC)c2)CC1 (configuration not stated) as listed: i	-8%
O=C(NCCc1cccc(F)c1)C1CCCN(c2nc3ccccc3s2)C1 (configuration not stated) as listed: 1%	-8%
